Screening data (PubChem BioAssay)
OXTR potentiate = human OXTR potentiators, primary screen, fluorescence, CHO-OTR cells, Fluo-8 calcium; Fluo-8 calcium fluorescence, potentiator mode; 0% = oxytocin EC15, 100% = EC100; activation, % at 3 µM; 320,000 compounds, 0.061% hits; AID 2445, 2010;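 active = activation above that plate's cutoff, the mean activation of tested compounds plus 3 SD, cut at about 6.6% in these data, passing the limit was not always enough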;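 note: 100% uses oxytocin at 75 nM as the full agonist control; some results filed as inactive read as strong as hits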
Target sequence (P30559 whole entry, looked up): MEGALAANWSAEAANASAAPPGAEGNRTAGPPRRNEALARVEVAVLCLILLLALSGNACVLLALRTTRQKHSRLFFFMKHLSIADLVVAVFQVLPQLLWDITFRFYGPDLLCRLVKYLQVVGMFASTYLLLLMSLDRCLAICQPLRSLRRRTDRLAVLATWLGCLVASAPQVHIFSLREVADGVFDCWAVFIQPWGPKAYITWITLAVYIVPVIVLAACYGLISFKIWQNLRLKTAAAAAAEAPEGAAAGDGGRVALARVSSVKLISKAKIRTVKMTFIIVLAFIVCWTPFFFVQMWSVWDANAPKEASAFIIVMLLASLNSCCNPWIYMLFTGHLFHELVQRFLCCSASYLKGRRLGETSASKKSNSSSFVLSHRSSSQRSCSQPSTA
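Assay system: CHO cell line stably expressing human OTR. Reagent: EC15 oxytocin agonist. Dosing: single dose, 3.0 µM nominal final compound concentration. Timing: compound 6 min at room temperature before oxytocin, 100 s read. Signal: kinetic Fluo-8 calcium fluorescence. Controls: oxytocin EC15 low and EC100 high.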
TAAR1 antag = human TAAR1 antagonists, primary screen, Fluo-8 calcium fluorescence, CHO RD-HGA16 cells. antagonist. inhibition, % at 3 µM. 360,000 compounds, 1.5% hits. AID 624466, 2012;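 active = inhibition above a per-plate cutoff, the mean inhibition of test compounds on that plate plus 3 SD, cut at about 49% in these data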;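 note: 0% = DMSO plus EC80 beta-PEA response and 100% = DMSO alone without agonist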
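test system = CHO RD-HGA16 cells bearing hTAAR1 | replication = singlicate | controls = DMSO-only wells and EC80 β-PEA-stimulated wells | reagent = EC80 β-phenethylamine stimulus | read-out basis = percent inhibition of PEA-evoked calcium signal, max/basal emission ratio | schedule = seeding 17-24 h prior, 75-min 37 °C, 30-min RT dye loading | signal = kinetic Fluo-8 calcium fluorescence measurement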
OXTR agonist = human OXTR agonists, primary screen, fluorescence, CHO-OTR cells, Fluo-8 calcium | AID 2435, 2010 | Fluo-8 calcium fluorescence; normalized: DMSO 0%, oxytocin 100% | activation, % at 3 µM | 320,000 compounds, 0.32% hits;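 active = activation above the mean of all tested compounds plus 3 SD, cutoff set per screening run, cut at about 20% in these data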;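 note: peak over basal fluorescence ratio from a 100 s FLIPR kinetic read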
GPR7 antagonist = GPR7 receptor antagonists, primary screen, cell-based, fluorescence, single concentration | Neuropeptides B/W receptor type 1 (Homo sapiens), P48145 | GPR7-expressing cells, fluorescence antagonist assay | inhibition, % at 4.4 µM | 290,000 compounds, 1.1% hits; in the data active = inhibition above about 16%, passing the limit was not always enough;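 note: cells stimulated with the agonist NPW; 0% = agonist with vehicle and 100% = vehicle without agonist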
CHO parental Ca = ATP-evoked calcium signal inhibitors, parental CHO, primary screen, counter-screen for OX1R antagonist project, cell-based, fluorescence, Fluo-8 calcium dye | parental CHO-K1, ATP-induced calcium, Fluo-8 fluorescence | inhibition, % at 5.6 µM | 330,000 compounds, 0.63% hits | AID 463079, 2010;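 active = inhibition above that plate's mean sample inhibition plus 3 SD, cut at about 26% in these data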;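 note: 0% = ATP-challenged DMSO wells and 100% = DMSO wells without ATP; some compounds past the cut are filed as inactive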
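test system = CHO parental line | reagent = ATP stimulus | measured by = intracellular calcium via Fluo-8 no-wash fluorescent dye | control set = ATP and no-ATP DMSO wells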
V1R ag counter = agonists of human V1a receptor, primary screen, counter-screen for OXTR agonist project, fluorescence, CHO-V1R cells; Vasopressin V1a receptor (Homo sapiens), P37288; Fluo-8 calcium fluorescence, agonist mode; 0% DMSO, 100% 3 nM vasopressin; activation, % at 3 µM; 320,000 compounds, 0.25% hits;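 active = activation above the mean activation of all tested compounds plus 3 SD, per screening run, cut at about 20% in these data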;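 note: signal is peak over basal fluorescence ratio across a 100 second FLIPR read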
* = called active by the depositor; . = not tested or not shown; & = joins results of further samples. Only part of the results is shown; count on the stated rates, not on these rows.

SMILES	OXTR potentiate	TAAR1 antag	OXTR agonist	GPR7 antagonist	CHO parental Ca	V1R ag counter
c1ccc2c(c1)Nc1ccccc1S2	-2	.	-2.7	-5	-3	-1.6
CN1CC[C@]23c4c5ccc(O)c4OC2[C@H](O)C=CC3[C@H]1C5 (stereo partly specified)	-2	-1	1.7	.	-3	0.8
COc1cc2nc(N3CCN(C(=O)[C@@H]4CCCO4)CC3)nc(N)c2cc1OC	-4	8	-0.1	-11	-1	0.3
C=CCC1([C@@H](C)CCC)C(=O)NC(=O)NC1=O	-6	7	0.9	.	-6	0.5
c1ccc(Nc2ccc(Nc3ccccc3)cc2)cc1	-7	32	-0.5	.	-1	-0.3
CCCCC(CC)COC(=O)c1ccccc1C(=O)OCC(CC)CCCC (stereo unspecified)	-1	-13	0.8	.	-10	1.0
Oc1ccc2c3c1O[C@H]1[C@@H](O)CC[C@@]4(O)[C@@H](C2)N(CC2CCC2)CC[C@]314	-2&1	-20&-23	-0.1&0.6	.	0&5	0.5&1.1
COc1cc2nc(N3CCN(C(=O)C4CCCO4)CC3)nc(N)c2cc1OC (stereo unspecified)	-3&-1	6&-16	0.7&-0.7	-10&3&-11	-9&-5	2.1&0.0
O=C(O)CCCc1ccc(N(CCCl)CCCl)cc1	-4	-25	-0.7	-7	8	0.3
CC1OC(OC2CC(O)C3(CO)C4C(O)CC5(C)C(C6=CC(=O)OC6)CCC5(O)C4CCC3(O)C2)C(O)C(O)C1O (stereo unspecified)	.	-12	.	.	.	.

Complete entries, looked up by structure:
c1ccc(Nc2ccc(Nc3ccccc3)cc2)cc1 in the list: OXTR potentiate: -7; TAAR1 antag: 32; OXTR agonist: -0.5; GPR7 antagonist: .; CHO parental Ca: -1; V1R ag counter: -0.3
c1ccc2c(c1)Nc1ccccc1S2 in the list: OXTR potentiate: -2; TAAR1 antag: .; OXTR agonist: -2.7; GPR7 antagonist: -5; CHO parental Ca: -3; V1R ag counter: -1.6
COc1cc2nc(N3CCN(C(=O)[C@@H]4CCCO4)CC3)nc(N)c2cc1OC in the list: OXTR potentiate: -4; TAAR1 antag: 8; OXTR agonist: -0.1; GPR7 antagonist: -11; CHO parental Ca: -1; V1R ag counter: 0.3
